# nsP2pro inh – Primary qHTS for inhibitors of NSP2Pro chikungunya virus (CHIKV). Polyprotein P1234 (Chikungunya virus (strain S27-African prototype)), Q8JUX6. hit rate 1.1% among 31,000. Potency, µM (highest dose often 24.9 µM), without a hit: top-dose activity change, negative = inhibition, hits mostly inhibitors. FRET peptide cleavage, nsP2pro, fluorescence 1 h; active means well fitted inhibition curve with a large enough effect; inconclusive means small, poorly fitted or top-dose-only effect; inactive means no such curve, though single readings can be large or run the other way; also: nearly all actives have a fitted effect of over 60% in size; a reference inhibitor and vehicle were the controls
# Starred values were filed as active, the others as inactive; i = inactive; ? = inconclusive; & = joins results of further samples; [ ] = dose if it differs, or a comment. % is scaled to controls: 0 for no effect and ±100 for the full control effect; potency is read from the fitted curve at half-maximal effect.
1: COc1cc(/C=C/C(=O)O[C@H]2[C@H](OC(=O)/C=C/c3cc(OC)c(O)c(OC)c3)O[C@H](CO[C@@H]3O[C@H](CO)[C@@H](O)[C@H](O)[C@H]3O)[C@@H](O)[C@@H]2O)ccc1O
  nsP2pro inh: -6.7%[10 µM]
2: CSCC(=O)Nc1ccc(=O)n2c1[C@@H]1C[C@@H](CN(C(=O)NC3CCCCC3)C1)C2
  nsP2pro inh: -11.5%[39.2 µM]
3: Cc1nn(C)c(C)c1CCC(=O)NCCc1ncc(C)n1Cc1ccc(F)cc1
  nsP2pro inh: i
4: CCOC(=O)c1ccc(O)c2ncc(-c3ccc(C(=N)N)cc3)cc12
  nsP2pro inh: i
5: CC(=O)O[C@@H]1c2c3c(cc(O)c2C(=O)O[C@@H]1C)O[C@@]1(C)[C@@H](O)C[C@H]2C(C)(C)C(=O)C=C[C@]2(C)[C@@H]1C3
  nsP2pro inh: 14.1%[10 µM]
6: FC(F)(F)c1ccccc1-c1nc(NCc2ccc(-c3ccccc3)cc2)c2ccccc2n1
  nsP2pro inh: i
7: COc1ccccc1-c1cc(C(F)(F)F)nc(S(=O)(=O)CCCC(=O)Nc2cc(C)ccc2O)n1
  nsP2pro inh: 42.0%[activator]
8: CN(CCCNC(=O)C1(CCO)CC12CCOCC2)C1CCCCC1 (stereo unspecified)
  nsP2pro inh: 0.6%
9: NC(=O)c1ccc(O[C@@H]2COCC[C@H]2NC(=O)Cc2ccc(O)cc2)cc1
  nsP2pro inh: 2.0%
10: C[C@H]1[C@@H]2[C@@H](O)C([C@H](C)C(=O)NCc3cccs3)CC[C@@]2(C)CC[C@@H]1NC(=O)COc1ccccc1 (stereo partly specified)
  nsP2pro inh: 0.2%
11: CC1=C(C)C(=O)OC(C(C)(O)C2CCC3C4CC=C5CC(OC6OC(COC7OC(CO)C(O)C(O)C7O)C(O)C(O)C6O)CC(O)C5(C)C4CCC32C)C1 (stereo unspecified)
  nsP2pro inh: 253.8%[activator][10 µM]
12: Cc1ccc(S(=O)(=O)c2cnc(SCC(=O)Nc3ccc4c(c3)OCCO4)[nH]c2=O)cc1Cl
  nsP2pro inh: 34.9%[activator]
13: Cn1cc(CNC(=O)c2ccc(OC3CCN(S(C)(=O)=O)CC3)c(Cl)c2)cn1
  nsP2pro inh: 0.5%
14: CC#CCC(C)[C@H](O)/C=C/[C@@H]1[C@H]2c3cccc(CCCC(=O)O)c3O[C@H]2C[C@H]1O (stereo partly specified)
  nsP2pro inh: -5.0%
15: Cc1cccc(C(c2sc3nc(-c4ccco4)nn3c2O)N2CCN(Cc3ccccc3)CC2)c1 (stereo unspecified)
  nsP2pro inh: -21.5%

16: Cc1cccc(-c2noc(CNC(=O)c3ccco3)n2)c1
  nsP2pro inh: -10.0%
17: NCC(CNc1nc(Nc2cccc(NC(=O)N3CCCC3)c2)ncc1I)C(=O)c1cccs1 (stereo unspecified)
  nsP2pro inh: ?
18: CN1CCc2c(sc3c2C(=O)NC(c2ccc(C(C)(C)C)cc2)N3)C1 (stereo unspecified)
  nsP2pro inh: ?
19: COc1ccccc1NC(=O)Cn1c(=O)n(-c2ccc(C)cc2)c(=O)c2ccc(C(=O)NCc3ccco3)cc21
  nsP2pro inh: -15.6%
20: O=C(Nc1ccc(-c2ccnc(Nc3ccc(N4CCOCC4)cc3)n2)cc1)[C@@H]1CCCN1
  nsP2pro inh: 109.6%[activator]
21: Cc1cccc(OCCc2noc(C3CCN(C(=O)NC4CCCCC4)C3)n2)c1 (stereo unspecified)
  nsP2pro inh: 1.2%
22: O=C(Nc1ccc(F)cc1F)c1ccc(-n2cnnc2)cc1
  nsP2pro inh: -11.4%
23: Cc1ccccc1CNC[C@H]1Cn2c(-c3ccccc3)cnc2CO1
  nsP2pro inh: i
24: BrC1C(Br)C(Br)C(Br)C(Br)C1Br (stereo unspecified)
  nsP2pro inh: -17.6%
25: O=S(=O)(c1ccc2c(c1)OCCO2)N1CCN(S(=O)(=O)c2ccccc2F)CC1
  nsP2pro inh: i
26: O=C(O)c1cnc(-c2ccccc2)nc1-c1ccncc1
  nsP2pro inh: -1.9%
27: O=C(NC(c1ccco1)c1cc(Cl)c2cccnc2c1O)c1ccccc1 (stereo unspecified)
  nsP2pro inh: i
28: CC(=O)OC1C=C(C(=O)O)C2(CO)CCC(C)C(C)(CCc3ccoc3)C2C1 (stereo unspecified)
  nsP2pro inh: -4.2%[10 µM]
29: COc1ccccc1N1CCN(C(=O)CCc2conc2-c2cccc(F)c2)CC1
  nsP2pro inh: -3.0%
30: CCCS(=O)(=O)N1CC(=O)N(c2cccc(Cl)c2C)C(C)(C(=O)NC2CCCC2)C1 (stereo unspecified)
  nsP2pro inh: -7.3%

# 16 consecutive compounds out of the list so far, for reference:
14: CC#CCC(C)[C@H](O)/C=C/[C@@H]1[C@H]2c3cccc(CCCC(=O)O)c3O[C@H]2C[C@H]1O (stereo partly specified)
  nsP2pro inh: -5.0%
15: Cc1cccc(C(c2sc3nc(-c4ccco4)nn3c2O)N2CCN(Cc3ccccc3)CC2)c1 (stereo unspecified)
  nsP2pro inh: -21.5%
16: Cc1cccc(-c2noc(CNC(=O)c3ccco3)n2)c1
  nsP2pro inh: -10.0%
17: NCC(CNc1nc(Nc2cccc(NC(=O)N3CCCC3)c2)ncc1I)C(=O)c1cccs1 (stereo unspecified)
  nsP2pro inh: ?
18: CN1CCc2c(sc3c2C(=O)NC(c2ccc(C(C)(C)C)cc2)N3)C1 (stereo unspecified)
  nsP2pro inh: ?
19: COc1ccccc1NC(=O)Cn1c(=O)n(-c2ccc(C)cc2)c(=O)c2ccc(C(=O)NCc3ccco3)cc21
  nsP2pro inh: -15.6%
20: O=C(Nc1ccc(-c2ccnc(Nc3ccc(N4CCOCC4)cc3)n2)cc1)[C@@H]1CCCN1
  nsP2pro inh: 109.6%[activator]
21: Cc1cccc(OCCc2noc(C3CCN(C(=O)NC4CCCCC4)C3)n2)c1 (stereo unspecified)
  nsP2pro inh: 1.2%
22: O=C(Nc1ccc(F)cc1F)c1ccc(-n2cnnc2)cc1
  nsP2pro inh: -11.4%
23: Cc1ccccc1CNC[C@H]1Cn2c(-c3ccccc3)cnc2CO1
  nsP2pro inh: i
24: BrC1C(Br)C(Br)C(Br)C(Br)C1Br (stereo unspecified)
  nsP2pro inh: -17.6%
25: O=S(=O)(c1ccc2c(c1)OCCO2)N1CCN(S(=O)(=O)c2ccccc2F)CC1
  nsP2pro inh: i
26: O=C(O)c1cnc(-c2ccccc2)nc1-c1ccncc1
  nsP2pro inh: -1.9%
27: O=C(NC(c1ccco1)c1cc(Cl)c2cccnc2c1O)c1ccccc1 (stereo unspecified)
  nsP2pro inh: i
28: CC(=O)OC1C=C(C(=O)O)C2(CO)CCC(C)C(C)(CCc3ccoc3)C2C1 (stereo unspecified)
  nsP2pro inh: -4.2%[10 µM]
29: COc1ccccc1N1CCN(C(=O)CCc2conc2-c2cccc(F)c2)CC1
  nsP2pro inh: -3.0%

# A different layout for part of the listing above:
no.	mol	nsP2pro inh
17	NCC(CNc1nc(Nc2cccc(NC(=O)N3CCCC3)c2)ncc1I)C(=O)c1cccs1 (stereo unspecified)	?
18	CN1CCc2c(sc3c2C(=O)NC(c2ccc(C(C)(C)C)cc2)N3)C1 (stereo unspecified)	?

# Next part
31: COc1ccccc1CNC(=O)c1ccc(Nc2nc3ccccc3n3nnnc23)cc1
  nsP2pro inh: -12.8%
32: CN(Cc1ccccc1C(F)(F)F)S(C)(=O)=O
  nsP2pro inh: -11.7%[39.2 µM]
33: Cc1ccc(OCCn2c(CCNC(=O)c3ccccc3[N+](=O)[O-])nc3ccccc32)cc1
  nsP2pro inh: -17.3%
34: Cc1nn(S(=O)(=O)c2ccc(Cl)cc2)c(C)c1S(=O)(=O)N1CCCCCC1
  nsP2pro inh: -16.8%
35: CC(C)(O)CCc1ccc(CN2CCN([C@H]3CCCC[C@@H]3O)CC2)cc1
  nsP2pro inh: 4.4%
36: CCNC(=NCCCC[C@H](NC(=O)[C@H](CC(C)C)NC(=O)[C@@H](CCCCN=C(NCC)NCC)NC(=O)[C@@H](Cc1ccc(O)cc1)NC(=O)[C@@H](CO)NC(=O)[C@H](Cc1cccnc1)NC(=O)[C@H](Cc1ccc(Cl)cc1)NC(=O)C(Cc1ccc2ccccc2c1)NC(C)=O)C(=O)N1CCCC1C(=O)N[C@H](C)C(N)=O)NCC (stereo partly specified)
  nsP2pro inh: 99.4%[activator]
37: COc1ccccc1NC(=O)Cn1c(=O)n(Cc2nc(C)no2)c(=O)c2cc3c(cc21)OCO3
  nsP2pro inh: -8.2%
38: O=C(C1CCOCC1)N1CCOC[C@H](Oc2ccccc2)C1
  nsP2pro inh: i
39: COc1ccc(N2CCN(C(=O)c3cc(NC(C)=O)cc4nc(C)ccc34)CC2)cc1
  nsP2pro inh: -7.6%
40: O=C(CNC(=O)c1ccccc1Cl)OCc1cc(=O)n2ccsc2n1
  nsP2pro inh: -21.4%
41: Cc1ccc2oc(C(=O)Nc3sc4c(c3C(=O)NCC3CCCO3)CCC4)cc(=O)c2c1 (stereo unspecified)
  nsP2pro inh: -16.8%
42: COc1cccc(CNC(=O)C2CCCN(c3nc4ccccc4n4cccc34)C2)c1 (stereo unspecified)
  nsP2pro inh: -7.1%
43: Cc1ncc(COP(=O)(O)O)c(C)c1O
  nsP2pro inh: 6.1%&0.4%
44: Cc1cc(OC(C)C(=O)N2CCN(CCc3ccccn3)CC2)ccc1Cl (stereo unspecified)
  nsP2pro inh: -18.6%
45: CCCc1ccc(OCC(=O)Nc2scc(-c3cccs3)c2C(=O)OC)cc1
  nsP2pro inh: -31.7%

46: Cc1cccc(CCNC(=O)CN(c2ccc(C(C)C)cc2)S(=O)(=O)c2c(C)nn(C)c2C)c1
  nsP2pro inh: -18.6%
47: Cc1cccc(-c2ocnc2C(=O)N2CC[C@H](CO)[C@H](NC(=O)C3CC3)C2)c1
  nsP2pro inh: -8.3%
48: O=C(CCCc1ccccc1)Nc1ccnn1C1CCN(C(=O)CCc2cnccn2)CC1
  nsP2pro inh: -1.4%
49: O=C(CSc1nc2c([nH]c3ccccc32)c(=O)n1-c1cccc(Cl)c1)NCC1CCCO1 (stereo unspecified)
  nsP2pro inh: -2.9%
50: S=C(Nc1ccccc1)N[C@H]1CO[C@H]2[C@@H]1OC[C@@H]2Nc1nccc(-c2ccco2)n1
  nsP2pro inh: ?
51: O=C(Cc1ccccc1)NCc1ccnc2[nH]ccc12
  nsP2pro inh: -1.3%[39.2 µM]
52: CCOCCCNc1ncnc2onc(C)c12
  nsP2pro inh: -11.4%
53: COc1ccc(Cc2nc3ccc(C(=O)NCCCN4CCN(C)CC4)cc3o2)cc1
  nsP2pro inh: -16.0%
54: Cc1ccc(CCNC(=O)c2c3c(nc4ccccc24)C(=O)N(C2CCCCC2)C3)cc1
  nsP2pro inh: -13.9%
55: CCC(=O)N1c2ccccc2CC1C(=O)NCCc1ccc(Cl)cc1 (stereo unspecified)
  nsP2pro inh: ?
56: Cc1cc(-c2ccc(N=Nc3ccc4c(S(=O)(=O)O)cc(S(=O)(=O)O)c(N)c4c3O)c(C)c2)ccc1N=Nc1ccc2c(S(=O)(=O)O)cc(S(=O)(=O)O)c(N)c2c1O
  nsP2pro inh: 12.4µM*
57: Cc1[nH]c2ccccc2c1C(c1ccccc1)c1cccs1 (stereo unspecified)
  nsP2pro inh: -3.0%

# Compound activity deposited in PubChem BioAssay by National Center for Advancing Translational Sciences (NCATS).

# A portion of the library, so the mix of outcomes need not match the whole.
